Compound activity deposited in PubChem BioAssay by several laboratories.
Sa RN4220 lethal: kills Staphylococcus aureus RN4220; inhibition, % (concentration not given with the values); S. aureus RN4220 growth, OD600, 16 h; 330,000 compounds, 0.33% hits;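 active = z-score of -3 or lower and OD600 up to 0.18 on both plates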;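 note: plate controls were untreated cells for no effect and reference antibiotic for full effect; stock transfer was 100 nL into about 80 µL; one replicate is shown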
Sa ugtP lethal: growth inhibition of S. aureus ugtP deletion strain. S. aureus RN4220 ugtP deletion, OD600 growth, 16 h; some inactives read as strong as hits. growth inhibition, % (test concentration not listed). 330,000 compounds, 0.54% hits. AID 1259309;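 active = z-score under -3 and OD600 up to 0.15 on both plates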;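 note: plate controls were untreated wells for no effect and antibiotic for full effect; wells of about 80 µL received 100 nL stock; the first replicate is given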
BJeLR lethal: BJeLR cell viability loss. BJeLR (HRASV12) viability, CellTiter-Glo ATP luminescence, 48 h; reference of the scale not given here. inhibition, % (test concentration not listed). 300,000 compounds, 0.17% hits. AID 1554;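 active = replicate mean above 50%; inconclusive = above 50% but judged a plate artefact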;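 note: 50 nL library stock added to about 25 µL; numbers are from one replicate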
Mtb hypoxia rep: Mtb hypoxia fluorescent reporter inhibition | M. tuberculosis hypoxia-regulated fluorescent reporter, fluorescence | fluorescence inhibition, % (concentration not given with the values) | 300,000 compounds, 0.1% hits | AID 1159583;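 active = 35 to 45% if threefold the growth effect, above 45% if 1.5-fold the growth effect; inactive = the rest, general growth blockers included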;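 note: wells of about 50 µL received 100 nL stock; 0% = vehicle wells and 100% = reference inhibitor wells; whole bacteria with a GFP reporter of the hypoxia response; strong numbers were not always called active; many hits fall short of the cut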
Autofluor counter: compound fluorescence in toxin protease inhibitor counterscreen; fluorescence intensity (no concentration beside the values); compound autofluorescence counterscreen, microsphere flow cytometry; stronger effect = higher value; AID 624483; 360,000 compounds, 3.1% hits;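 active = at least 3 SD above the mean of all compounds, about 16000 in these data; inconclusive = too few beads counted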;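 note: 100 nL of 1 mM stock went into each well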
PrP 5UTR inh: suppresses PrP 5' UTR mRNA reporter expression; cell-based PrP 5' UTR mRNA reporter, plate reader; inhibition, % (no concentration beside the values); 340,000 compounds, 0.35% hits; AID 488862;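 active = every replicate at 50% or more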;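 note: 0 = median of the neutral control wells; tested in H4 reporter cells; numbers are from one replicate; inactives centre near -14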
Mtb hypoxia rep growth: also measured in Mtb hypoxia rep; calls as there; growth inhibition, %; measured here: M. tuberculosis growth (absorbance);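 0% = vehicle and 100% = reference antibiotic; read after six days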
The depositor's hits bear a star; u = inconclusive; x = no result given; & = joins results of further samples.

SMILES | Sa RN4220 lethal | Sa ugtP lethal | BJeLR lethal | Mtb hypoxia rep | Mtb hypoxia rep growth | Autofluor counter | PrP 5UTR inh
COc1cccc(C2C(C(=O)c3ccco3)=C(O)C(=O)N2CCN(C)C)c1OC (configuration not stated) | -2.4 | 6 | 1 | 1 | 7 | 2036 | -8
CN(CC(=O)Nc1ccccc1Br)C(=O)CN1CCN(c2ccccc2Cl)CC1 | 6.3 | 11 | x | -12 | -9 | 2881 | 4
O=C(c1csc2c1CCCC2)N1CCN(c2ncccn2)CC1 | 6.4 | 1 | 5 | -1 | 9 | 7659 | 4
COCCNc1nc2c(c(=O)n(Cc3cccc(Br)c3)c(=O)n2C)n1C | -1.9 | 14 | -4 | 6 | 5 | 3747 | -20
CN(C(=O)c1cccc(NC(=O)Cc2ccc(NC(=O)C3CCCN(C(=O)C4CCC4)C3)cc2)c1)C1CCCC1 (configuration not stated) | 0.2 | 4 | x | -5 | -2 | 2947 | -8
O=C(NC(=S)Nc1c(Cl)ccc2nsnc12)c1ccco1 | -3.3 | -24 | -5 | 0 | 7 | 1970 | -2
Oc1ccc(CC2CNCCN2CCC23CC4CC(CC(C4)C2)C3)cc1 (configuration not stated) | -0.1&0.8 | -10&-14 | x | 10&16 | 13&13 | x | x
COc1nc(OC)nc(N2CCC(C(=O)Nc3cccc4c3CCCC4)CC2)n1 | 2.9 | 6 | -2 | 4 | 5 | 15828 | -10
CCN(Cc1nc(-c2ccccc2)no1)C(=O)c1ccc2c(c1)OCO2 | 1.3 | 16 | -1 | 3 | -6 | 3071 | -20
CCOc1ccc(OCC)c(NC(=O)CN2CCN(c3cc(C)ccc3C)CC2)c1 | 1.4 | -17 | -9 | 8 | 2 | 8096 | -42
O=C(NC1CCCc2ccccc21)c1ccc(S(=O)(=O)N2CCOCC2)cc1 (configuration not stated) | -0.9 | -13 | -8 | -3 | -7 | 4494 | -8
CC1CCCCN1Cc1c(C#N)c2ccccc2n1C (configuration not stated) | -12 | -4 | -7 | 11 | 9 | 4362 | -8
CCN(CC)C(=O)C1CCN(CC2CC=CCC2)CC1 (configuration not stated) | 4.8 | 9 | -4 | x | x | 3452 | -1
COc1ccc(N2CCN(C(=O)c3nn(C)c4c3CS(=O)(=O)c3ccccc3-4)CC2)cc1 | 2.4 | 4 | 1 | 13 | 2 | 5314 | -17
O=C(NC(Cc1ccccc1)C(=O)O)/C(=C\c1ccco1)NC(=O)c1ccco1 (configuration not stated) | x | x | 1 | x | x | 4761 | -20
Nc1nc(-c2cc(-c3ccccc3)no2)cs1 | 4.0 | 2 | 6 | 14 | 9 | 3565 | -55
CCC(C)C(C)=NNC(=O)c1cn(-c2ccccc2)nc1-c1ccccc1 (configuration not stated) | 1.5 | 3 | x | 2 | -1 | x | x
Cc1ccccc1NS(=O)(=O)c1ccc(NC(=O)c2nc3ncccn3n2)cc1 | 0.2 | 21 | -7 | 9 | 8 | 5734 | -33
Cc1n[nH]c(=O)nc1NC(C)c1ccccc1 (configuration not stated) | -0.1 | 2 | 3 | 6 | 1 | 22579* | -12
CCC(NC(=O)c1ccc2nc(Cc3ccc(OC)cc3)oc2c1)c1ccncc1 (configuration not stated) | -6.4 | 5 | 17 | -23 | -8 | 5930 | 3
Cn1c(SCC(=O)N/N=C/c2ccco2)nc2ccccc21 | x | x | 7 | x | x | 3989 | -12
Cn1nccc1C(=O)OCC(=O)Nc1ccccc1 | 3.1 | 2 | -10 | -13 | -2 | 3418 | -21
O=C(NCc1ccc(F)cc1)c1cc2ccccc2o1 | -0.1 | -6 | 2 | x | x | 5755 | -24
Cc1ccc(C)c(S(=O)(=O)N2CCCC2CNC(=O)C(=O)NCc2ccccc2C)c1 (configuration not stated) | 2.4 | 13 | -9 | 3 | 0 | x | -14
COc1ccc(C(=O)CCNc2ccc(F)cc2)cc1 | 2.8 | 9 | 4 | 14 | 6 | 3717 | -55
COc1ccc(-c2cc(=O)n(CCC#N)[nH]2)cc1 | 1.6 | 3 | 1 | 18 | 7 | 9686 | -22
CC(/C=N/N1CCN(c2ccc(C)cc2)CC1)=C\c1ccccc1 | x | x | -2 | x | x | 2585 | -4
O=C(O)c1ccc2c(c1)C(=O)N(c1cccc3ccccc13)C2=O | -0.2 | 17 | -6 | -4 | 0 | 3029 | -12
O=C(CNCc1ccc(Cl)cc1)Nc1ccc(C(=O)N2CCCCCC2)cc1 | 3.7 | -9 | -4 | 12 | -3 | 5863 | 4
Cc1cc(CNC(=O)Cc2ccc(F)cc2)c2ccccc2n1 | 1.0 | 0 | 17 | 7 | 20 | 3331 | -8
Cc1ccc(/C=C/C(=O)Nc2cc(S(N)(=O)=O)ccc2O)cc1 | 2.4 | 0 | -10 | -3 | -1 | 4025 | -16
Cc1cc(C)c2nc(NNC(=O)c3ccc(S(=O)(=O)N4CC(C)CC(C)C4)cc3)sc2c1 (configuration not stated) | 16 | -16 | 12 | -4 | 6 | 4395 | 4
O=C(NNC(=O)C1CC(c2cccs2)=NO1)Nc1ccccc1 (configuration not stated) | -1.5 | -3 | -2 | -2 | 1 | 6364 | -15
COc1ccc(NC(=O)/C=C/c2ccco2)cn1 | 6.1 | 9 | 3 | 9 | 8 | 4186 | -27
Cc1ccc([N+](=O)[O-])c(C(=O)NN=Cc2cccs2)c1 | 2.5 | 7 | x | -3 | 10 | x | x
COc1ccc(N(CC(=O)Nc2ccccc2F)S(=O)(=O)c2ccc(OC)c(OC)c2)cc1 | 1.7 | 6 | -5 | 0 | 9 | 4013 | -25
CN(C)c1nc(Oc2ccc(C(=O)OCC(=O)Nc3ccccc3)cc2)nc(N(C)C)n1 | -9.2 | -12 | -3 | 21 | 6 | 3472 | -15
C=CCn1c(COc2ccccc2)nnc1SCC(=O)N/N=C/c1ccc(C)cc1 | x | x | -7 | x | x | 4108 | -14
COc1ccc([N+](=O)[O-])cc1NC(=O)Cn1ccsc1=N | 1.0 | 8 | -9 | 6 | 10 | 9319 | -4
CC(=O)c1cc(CN2CCC(n3nccc3NC(=O)c3ccccc3Cl)CC2)cs1 | 2.4 | 5 | 2 | 6 | -20 | 6040 | -27
CCn1c(SCCN2CCCCC2)nnc1-c1ccc(S(=O)(=O)N2CCOCC2)cc1 | 1.0 | -3 | -2 | 1 | 2 | 4150 | -8
COc1ccc(C=Nn2cncn2)cc1Cn1cc([N+](=O)[O-])cn1 | 2.8 | 7 | x | 10 | -2 | x | x
Cc1ccc(S(=O)(=O)N2[C@@H](c3cccc4ccccc34)C(C(=O)O)=C[C@H]2C(C)(C)C)cc1 | 12 | 23 | x | -3 | 1 | 3933 | -3
CCOC(=O)CN1C(=O)SC(CC(=O)Nc2nccs2)C1=O (configuration not stated) | -7.9 | -5 | -6 | 4 | 4 | 3076 | -17
Cc1nn(-c2cc(Cl)ccc2N)c(=O)c2ccccc12 | 5.3 | 16 | -3 | 4 | -2 | 8078 | 1
COc1ccc(C2CC(=O)C=C(c3cc(Cl)ccc3C)C2)cc1 (configuration not stated) | -2.2 | 15 | x | 7 | 8 | x | x
CS(=O)(=O)N(Cc1ccccc1)c1ccc(C(=O)Nc2ccc(C(N)=O)cc2)cc1 | 0.9 | 0 | 2 | -5 | 0 | 3876 | -4
COc1ccc(CCN2CN(S(=O)(=O)c3ccccc3)c3nc4ccccc4nc32)cc1 | 3.1 | 6 | 3 | 1 | -2 | 2200 | -6
O=C(COc1ccc(Cl)cc1Cl)N/N=C/c1ccc[nH]1 | x | x | 0 | x | x | 5169 | -36
COc1ccc(CN(C)C(=O)C(Cc2ccccc2)NC(=O)c2ccccc2)c(OC)c1 (configuration not stated) | 1.2 | 1 | -2 | 9 | 4 | u | -17
CCCNC(=O)C(=O)c1cccn1-c1ccsc1C(=O)OC | 6.7 | 4 | -2 | 10 | 11 | 2311 | -12
O=C(CN1CCC(NC(=O)C2CCCCC2)CC1)Nc1cccc(F)c1 | -1.3 | 10 | -4 | 3 | 7 | 5921 | -31
CCN(CC)C(=O)Cn1cc(C=C2C(=O)N(C)C(=O)N(C)C2=O)c2ccccc21 | 1.8 | 16 | 13 | 7 | 12 | 3807 | x
CC(C)(C)CN1CCC(Oc2cccc(C(=O)N3CCC[C@H]3CO)c2)CC1 | 3.7 | 10 | 5 | 3 | -6 | 4284 | -28
O=C(NCc1ccc(Cl)cc1Cl)C1CCN(S(=O)(=O)c2ccc3c(c2)OCCCO3)CC1 | -6.7 | -3 | 1 | 2 | 0 | 10109 | -25
CC(C)CCCC(C)C1CCC2C3C(=O)C=C4CC(O)CC[C@]4(C)C3CC[C@]12C (some centres not stated) | -9.5 | 3 | x | 2 | 6 | x | x
COC(=O)c1cc(Br)c(=O)n(-c2ccc(OC)cc2)c1 | 3.6 | 6 | -2 | x | x | 2257 | -1
O=C(CSc1ccsc1[N+](=O)[O-])NCCc1ccccc1 | 1.2 | -5 | -12 | 16 | 20 | 3897 | -15
COc1ccc2[nH]c3c(c2c1)CCN1C(=O)N([C@@H](C)C(=O)NCc2c(F)cccc2Cl)C(=O)[C@]31C | 3.5 | -2 | -11 | x | x | 5893 | -19
CC(CC(=O)NCc1ccc(Cl)cc1)c1ccccc1 (configuration not stated) | 3.8 | 3 | -2 | 6 | 3 | 2906 | 16

Arranged by heavy-atom count (highest first): part of the list above.
SMILES | Sa RN4220 lethal | Sa ugtP lethal | BJeLR lethal | Mtb hypoxia rep | Mtb hypoxia rep growth | Autofluor counter | PrP 5UTR inh
CCn1c(SCCN2CCCCC2)nnc1-c1ccc(S(=O)(=O)N2CCOCC2)cc1 | 1.0 | -3 | -2 | 1 | 2 | 4150 | -8
CC(C)CCCC(C)C1CCC2C3C(=O)C=C4CC(O)CC[C@]4(C)C3CC[C@]12C (some centres not stated) | -9.5 | 3 | x | 2 | 6 | x | x
COc1ccc(C2CC(=O)C=C(c3cc(Cl)ccc3C)C2)cc1 (configuration not stated) | -2.2 | 15 | x | 7 | 8 | x | x
O=C(COc1ccc(Cl)cc1Cl)N/N=C/c1ccc[nH]1 | x | x | 0 | x | x | 5169 | -36

Next section
SMILES | Sa RN4220 lethal | Sa ugtP lethal | BJeLR lethal | Mtb hypoxia rep | Mtb hypoxia rep growth | Autofluor counter | PrP 5UTR inh
Cc1cc(Br)ccc1NC(=O)CNC(=O)CN(C)Cc1nc2ccccc2c(=O)[nH]1 | 5.6 | 4 | 2 | -2 | 2 | 7991 | -3
O=C(CCS(=O)(=O)c1ccccc1)NNC(=O)CSc1ccccc1F | 2.4 | 5 | x | 8 | 7 | 3432 | -15
CC(C)CC(NC(=O)c1nc[nH]c1C(=O)N(C)Cc1ccccc1)C(=O)OCc1ccccc1 (configuration not stated) | 2.2 | -15 | x | 5 | 9 | x | x
COC(=O)Nc1nc(C)c(C(=O)N(C)C)s1 | 2.2 | 0 | -3 | 1 | 8 | 2889 | -16
Cc1nc(N)nc(N)c1CCCc1ccc(Cl)c(Cl)c1 | 19 | 2 | 57* | 9 | 11 | 3852 | 42
O=S1(=O)N=C(N(Cc2cccs2)c2ccc(O)cc2)c2ccccc21 | 5.1 | 2 | -5 | -4 | -1 | 3332 | 6
Cc1ccc(C#N)c(SCc2nnc(-c3ccc(Cl)cc3)o2)n1 | 4.2 | -31 | 1 | 6 | 4 | 7527 | -6
CC(C)[C@H](NC(=O)N1CCC(Cc2ccccc2)CC1)C(=O)O | -1.7 | -2 | -5 | -7 | -2 | 3258 | x
CCN(CC)S(=O)(=O)c1ccc(S(=O)(=O)N(Cc2ccccn2)Cc2ccco2)cc1 | 4.6 | 8 | -8 | 18 | 9 | 5165 | -6
O=C(CON=Cc1cccc([N+](=O)[O-])c1)NC1CCCCC1 | -1.6 | 2 | x | 4 | 12 | x | x
CSc1ccccc1NC(=O)CN(Cc1ccc(Cl)cc1)S(C)(=O)=O | 14 | -4 | -1 | 6 | 15 | 5483 | -9
CC(C)CC(NC(=O)C1CCC(=O)N1)C(=O)NC(CC(C)C)C(=O)N1CCCC1C(N)=O (configuration not stated) | 3.5 | 1 | -3 | -11 | -7 | 4375 | -11
CCN1C(=O)C2C(c3ccc(OC)cc3)N3C(=O)CN(Cc4ccccc4)C(=O)[C@@]3(Cc3ccccc3)C2C1=O (some centres not stated) | 1.2 | -8 | x | -4 | 8 | x | x
